# Compound activity (PubChem BioAssay)
# Ecoli rRNA inh: inhibits bacterial ribosomal RNA function over humanized ribosomes. AID 720706. E. coli WT GFP vs humanized-ribosome RFP mutants, fluorescence, 24 h; hits give low values; DMSO median 0, no signal -100. 1.6% of 350,000 active. GFP signal change (wild-type ribosome), % (test concentration not listed);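 active = significant combined selectivity score with lowered wild-type GFP, culture density cut under 30%, mutant RFP and density less affected; inactive = any of these conditions unmet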; also: one replicate is shown; some compounds called inactive have numbers as strong as hits
# MLL AF4-AF9 inh: MLL-AF4/AF9 protein interaction inhibition; P42568; AlphaScreen, biotin-AF4 peptide binding to FLAG-AF9; inhibition, % at 10 µM; 0.47% of 350,000 active; AID 651704;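 active = every replicate reaching a set inhibition limit, whatever the replicate mean, cut at about 25% in these data; inconclusive = mean inhibition reaches that limit but some replicates miss it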;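 also: 0% = plate neutral control median and 100% = total signal loss; the record names both 10 and 1 µM as test concentration; the first replicate is given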
# Target sequence (P42568 whole entry, looked up): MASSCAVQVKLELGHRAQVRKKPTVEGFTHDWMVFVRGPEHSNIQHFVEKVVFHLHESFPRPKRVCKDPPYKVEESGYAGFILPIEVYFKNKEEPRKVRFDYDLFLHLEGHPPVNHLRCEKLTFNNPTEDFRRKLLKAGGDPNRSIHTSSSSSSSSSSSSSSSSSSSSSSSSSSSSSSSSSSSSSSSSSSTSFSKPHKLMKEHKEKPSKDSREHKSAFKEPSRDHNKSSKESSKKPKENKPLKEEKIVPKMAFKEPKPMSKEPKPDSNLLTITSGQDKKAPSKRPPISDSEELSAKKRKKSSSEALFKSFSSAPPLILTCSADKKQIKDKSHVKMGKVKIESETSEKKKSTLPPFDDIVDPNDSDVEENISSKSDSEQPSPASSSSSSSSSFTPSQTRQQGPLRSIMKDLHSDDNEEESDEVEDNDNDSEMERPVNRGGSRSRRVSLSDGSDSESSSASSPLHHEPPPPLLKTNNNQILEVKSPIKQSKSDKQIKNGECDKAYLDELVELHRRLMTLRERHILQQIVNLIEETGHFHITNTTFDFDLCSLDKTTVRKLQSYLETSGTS
# ALR H2O2 inh: human ALR oxidase inhibition via reduced H2O2 | purified ALR, DTT oxidation, H2O2 HRP-luminol luminescence | inhibition, % (test concentration not listed) | 3.8% of 290,000 active | AID 485317;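 active = mean and each replicate at 75% or more; inconclusive = only one of the two met; inactive = neither met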;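 also: stock transfer was 7.5 nL into about 7.5 µL; 0% = neutral wells and 100% = wells with inactivated enzyme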
# Target sequence (P55789 whole entry, looked up): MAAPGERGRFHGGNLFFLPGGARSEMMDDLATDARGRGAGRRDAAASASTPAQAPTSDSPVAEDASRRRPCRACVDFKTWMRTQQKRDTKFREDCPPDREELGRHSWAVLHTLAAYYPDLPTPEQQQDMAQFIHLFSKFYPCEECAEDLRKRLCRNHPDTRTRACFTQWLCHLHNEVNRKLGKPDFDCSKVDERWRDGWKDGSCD
# Calb FLC: C. albicans growth modulation with fluconazole. C. albicans CaCi-2 (fluconazole-resistant clinical isolate) + fluconazole, Alamar Blue growth, 48 h. growth inhibition, % (concentration not given with the values). 0.57% of 300,000 active;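 active = most replicates above 75%; inconclusive = exactly half above 75%; inactive = most below 75%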;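 also: all wells also contain fluconazole at 8 µg/ml as a sub-toxic cotreatment; 0% = median of DMSO wells and 100% = median of geldanamycin control wells; wells of about 8 µL received 7.5 nL stock; the first replicate is given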
# T cruzi repl: T. cruzi replication inhibition; 1.4% of 300,000 active; inhibition, % (concentration not given with the values); T. cruzi beta-gal in NIH3T3, luminescence, 90 h;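 active = mean inhibition across valid replicates above about 55%, limit read from the data; inconclusive = mean below that limit but half or more replicates reach it; inactive = mean below it, under half of replicates reach it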;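 also: signal also drops with host cell toxicity which is not excluded here; 0% = plate median of DMSO wells and 100% = zero luminescence signal; higher percent means less beta-gal luminescence so fewer parasites; stock transfer was 50 nL into about 50 µL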
# Beta cell apopt: beta cell apoptosis inhibition; INS-1E cytokine-induced death, ATP luminescence, 48 h; percent of positive-control rescue, neutral wells zero; protection from apoptosis, % (no concentration beside the values); 0.8% of 300,000 active; AID 435005;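 active = all replicates at 75% or more, or half of them and the mean; inconclusive = half reach 75% but not the mean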;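 also: 0% = cytokine-treated negative control wells and 100% = positive control rescue; higher means more ATP so stronger rescue from cytokine killing; wells of about 40 µL received 100 nL stock; the first replicate is given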
# RanGTP-Impb inh: disruptors of Ran-importin-beta complex formation – biochemical, FRET, CFP-Ran, YFP-importin-beta, homogeneous, primary screen | 1.1% of 300,000 active | inhibition, % (concentration not given with the values) | cell-free CFP-Ran/YFP-importin-beta FRET ratio | AID 2216;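 active = most replicates above 15%; inconclusive = exactly half above 15%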;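 also: 0% = DMSO wells and 100% = Ran loaded with GDP instead of GTP; wells of about 40 µL received 100 nL stock; the first replicate is given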
# FGF22 binding: FGF22 (human) thermal shift binding; calls only at 9.99 µM; recombinant FGF22 thermal shift, SYPRO orange fluorescence; percent of sucrose octasulfate shift, DMSO zero; Q9HCT0; 1.5% of 340,000 active;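 active = melting point raised past a set limit in the mean and every replicate; inconclusive = no clear call; three in four hits are not shown here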
# Target sequence (Q9HCT0 whole entry, looked up): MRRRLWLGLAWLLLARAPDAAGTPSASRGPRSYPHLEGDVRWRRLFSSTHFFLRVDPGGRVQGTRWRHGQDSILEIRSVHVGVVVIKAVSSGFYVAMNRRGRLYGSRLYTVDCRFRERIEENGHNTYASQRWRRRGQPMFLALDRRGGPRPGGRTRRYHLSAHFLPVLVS
# Ecoli rRNA inh OD600: second read-out of Ecoli rRNA inh, no call of its own (marks repeat the call); OD600 change, %; measured here: OD600 growth;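 optical density of the mix in the first replicate; 0 = DMSO median and -100 = no signal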
# Ecoli rRNA inh RFP: second read-out of Ecoli rRNA inh, no call of its own (marks repeat the call); RFP signal change, %; measured here: RFP humanized mutant strains;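 first replicate; 0 = DMSO median and -100 = no signal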
# * = called active by the depositor; i = inactive; ? = inconclusive; · = not tested or not shown. Some of the compounds tested. The share of hits here may be higher or lower than overall.
Molecule	Ecoli rRNA inh	Ecoli rRNA inh OD600	Ecoli rRNA inh RFP	MLL AF4-AF9 inh	ALR H2O2 inh	Calb FLC	T cruzi repl	Beta cell apopt	RanGTP-Impb inh	FGF22 binding
Cc1cc2nc(-c3ccc(NC(=O)c4cccnc4)cc3)oc2cc1C	·	·	·	·	-2	10	-3	104*	4.5	·
CC(C)CC1(C)NC(=O)N(CC(=O)Nc2ccc3c(c2)OCCO3)C1=O (stereo not drawn)	0	0	-4.0	-0.2	5	·	·	-2	·	i
CCCCC(C(=O)NC1CCCC1)N(C(=O)c1snc(C(N)=O)c1N)c1ccc(F)cc1 (stereo not drawn)	4	2	-3.4	-0.8	·	14	19	5	6.0	i
C=CCNC(=O)c1onc(CSc2cc(C)cc(C)c2)c1C(=O)O	-22	-25	1.8	-3.2	1	-3	-1	-6	4.2	i
Cc1cc(C)cc(NC(=O)C(=O)NCC2CCCO2)c1 (stereo not drawn)	5	5	3.9	-1.1	-13	-9	-9	-4	-2.8	i
O=C(C1CCCCN1S(=O)(=O)c1ccc(F)cc1)N1CCN(c2ccccc2F)CC1 (stereo not drawn)	-4	-5	-0.6	-6.1	-25	-2	31	-3	4.6	i
COc1cccc(NC(=O)C2CCC(CNS(=O)(=O)c3ccc4c(c3)CC(C)N4C(C)=O)CC2)c1 (stereo not drawn)	-15	-4	2.9	-2.2	-1	1	19	4	2.6	i
Cc1c(NC(=O)c2ccc(C(C)(C)C)cc2)cccc1[N+](=O)[O-]	-7	-16	-19	-3.2	-17	-5	12	10	1.9	i
CCN(CC)C(=O)NC1CC2CCCC(C1)N2Cc1ccccc1 (stereo not drawn)	·	·	·	·	-13	8	-10	4	-5.3	·
O=C(c1ccc2c(c1)OCO2)C1CCCN(Cc2ccc3nsnc3c2)C1 (stereo not drawn)	-18	-22	-1.1	5.7	-4	-57	31	-7	0.0	·
COc1ccc(-c2[nH]ncc2CNC(C)CCn2cccn2)c(F)c1 (stereo not drawn)	16	10	-1.7	0.3	·	4	-2	-1	5.3	i
COc1ccc(N(CC(=O)NCc2ccco2)C(=O)CCC(=O)Nc2nccs2)c(OC)c1	3	4	0.0	-8.1	-9	14	12	-7	0.3	i
O=C(NCCCN1CCCC1=O)c1cccc(S(=O)(=O)Nc2ccc(F)cc2)c1	·	·	·	-1.5	-2	·	·	-1	·	i
COc1ccccc1C(=O)NCc1nnc(SC(C)C(=O)Nc2nccs2)n1C (stereo not drawn)	4	11	0.8	-0.6	2	-1	4	0	5.8	i
Cc1cccc(NC(=O)Nc2ccc(F)cc2)n1	7	-2	2.0	-0.1	·	-15	2	·	3.2	i
O=C(CSCc1ccccc1)Nc1cccc(F)c1	·	·	·	·	·	-4	8	-1	0.2	·
Cc1c(C)n(-c2ccc(Cl)cc2)c2ncnc(N)c12	3	-1	0.9	-19	-2	0	8	1	-4.1	i
COc1ccc2[nH]c(=O)c(CN(CCCN(C)C)C(=O)Nc3ccc(F)cc3)cc2c1	·	·	·	·	-8	-2	19	1	1.8	·
COc1ccc(NC(=O)CCSc2nnc(C)s2)cc1	·	·	·	·	-16	-7	-9	-6	-1.5	·
CNc1ccc2c3c(cccc13)C(=O)N(C)C2=O	112	-28	4.1	-18	-5	2	0	-12	i	·
Cc1ccc(NC(=O)CN2C(=O)NC3(CCc4ccccc43)C2=O)cc1S(=O)(=O)N1CCCCC1 (stereo not drawn)	-3	-16	1.1	2.6	1	5	-1	-4	3.3	i
CCOCCCNC(=O)CN(c1cc([N+](=O)[O-])ccc1OC)S(C)(=O)=O	18	9	-1.5	0.6	-19	-15	1	3	-1.6	i
O=C(CSc1ccc(-c2ccco2)nn1)NCc1ccccc1Cl	·	·	·	·	-9	2	0	-5	?	·
C=CCOC(=O)COc1ccc2c(C)c(C)c(=O)oc2c1C	·	·	·	·	-4	9	-14	-12	3.9	·

# Quoted from the entries so far, two compounds:
Molecule	Ecoli rRNA inh	Ecoli rRNA inh OD600	Ecoli rRNA inh RFP	MLL AF4-AF9 inh	ALR H2O2 inh	Calb FLC	T cruzi repl	Beta cell apopt	RanGTP-Impb inh	FGF22 binding
O=C(CSCc1ccccc1)Nc1cccc(F)c1	·	·	·	·	·	-4	8	-1	0.2	·
Cc1c(C)n(-c2ccc(Cl)cc2)c2ncnc(N)c12	3	-1	0.9	-19	-2	0	8	1	-4.1	i

# Remaining list, next part.
Molecule	Ecoli rRNA inh	Ecoli rRNA inh OD600	Ecoli rRNA inh RFP	MLL AF4-AF9 inh	ALR H2O2 inh	Calb FLC	T cruzi repl	Beta cell apopt	RanGTP-Impb inh	FGF22 binding
Cc1cc(Nc2ccc3c(c2)OCCO3)c2cc(Cl)ccc2n1	·	·	·	·	·	23	35	23	-1.0	·
O=S(=O)(c1ccc(F)cc1)N1CCC(N2CCCCCC2)CC1	·	·	·	·	-14	7	-14	·	1.9	·
COc1ccccc1N1CCN(C(=O)/C=C/c2ccc3c(c2)OCO3)CC1	·	·	·	·	-1	6	2	-1	-3.5	·
CC(=O)Nc1c(Br)cc(N2C(=O)CCC2=O)cc1Br	·	·	·	·	·	11	-9	-3	-0.6	·
COc1ccc(Cc2nnc(SCC(=O)NC(C)c3ccccc3)o2)cc1 (stereo not drawn)	·	·	·	·	-7	-3	0	1	-0.4	·
Cc1c(Cl)cccc1NC(=O)CCC(=O)N/N=C/c1ccco1	7	11	0.8	-1.3	-20	16	-13	-5	4.3	i
Cc1ccc(S(=O)(=O)N2CCCCC2)cc1C(=O)NC1CC(C)(C)NC(C)(C)C1	11	5	-0.7	-3.9	-2	·	-2	-1	-2.3	i
Cc1nc(C(F)(F)F)nc(Nc2ccc(N=Nc3ccccc3)cc2)c1C#N	9	4	-0.8	-16	-3	6	3	-5	-5.7	i
CCCCC(CCC(=O)Nc1ccccc1C(=O)OCC)C(=O)O (stereo not drawn)	·	·	·	·	-4	2	-6	-3	8.2	·
CN(c1ccccc1C(=O)NC1CCCCC1)S(=O)(=O)c1ccccc1	-7	-11	-3.5	-1.6	-4	-14	·	-6	5.2	i
O=C1C=CC[C@H](/C=C/C[C@@H](O)C[C@H](O)CCc2ccccc2)O1	·	·	·	·	26	2	51	-5	4.4	·
Cc1[nH]c(C)c(S(=O)(=O)NCc2ccccc2Cl)c1C(=O)N1CCCC1	8	8	0.0	-4.4	4	1	-3	-1	?	i

# An excerpt from above, showing only Calb FLC and ALR H2O2 inh:
compound | Calb FLC | ALR H2O2 inh
Cc1ccc(S(=O)(=O)N2CCCCC2)cc1C(=O)NC1CC(C)(C)NC(C)(C)C1 | · | -2
Cc1nc(C(F)(F)F)nc(Nc2ccc(N=Nc3ccccc3)cc2)c1C#N | 6 | -3

# Following part.
Molecule	Ecoli rRNA inh	Ecoli rRNA inh OD600	Ecoli rRNA inh RFP	MLL AF4-AF9 inh	ALR H2O2 inh	Calb FLC	T cruzi repl	Beta cell apopt	RanGTP-Impb inh	FGF22 binding
O=C(Nc1ccncc1)c1cc(-c2ccccn2)nc2ccc(Br)cc12	20	24	6.2	-0.2	·	20	-29	-1	-1.1	i
COc1ccc(Cl)cc1NC(=O)C(C)N1CCc2ccccc21 (stereo not drawn)	-31*	-24*	-3.1*	5.7	65	-15	-11	-1	-2.3	i
Cc1ccc(C(=O)CC2(O)C(=O)N(C)c3ccc(Br)cc32)c(C)c1 (stereo not drawn)	-10	-8	-6.4	4.4	-52	2	-7	-9	-2.7	i
CC1CN(S(=O)(=O)c2cccc(C(=O)NNC(=O)C(C)Oc3ccccc3F)c2)CC(C)O1 (stereo not drawn)	-1	0	-1.0	-9.9	0	-1	2	-7	-1.6	·
Oc1ccc(CNC2CCCCC2)cc1	·	·	·	·	11	-2	-5	3	-4.1	·
Cc1ccc(C)c(NC(=O)Cn2nnc(C(=O)NCc3ccco3)c2N)c1	10	20	-1.4	-2.0	7	-9	-1	·	2.0	i
C/C(CC(=O)Nc1cccnc1)=N/NC(=O)COc1ccc(Cl)cc1Br	-5	-15	6.6	-3.6	12	3	7	2	3.1	i
COC(=O)C(Cc1cnc(Cl)s1)(C(=O)OC)c1ccc([N+](=O)[O-])cc1	·	·	·	·	-5	4	-4	3	-1.9	·
CCOc1ccc(N2CC(C(=O)NC3=NCCS3)CC2=O)cc1 (stereo not drawn)	-1	-4	-6.4	-1.4	·	3	-6	-9	-4.7	i
Cc1ccc(NC(=O)CN(C)C(=O)c2ccc(NS(=O)(=O)c3ccc4[nH]c(=O)[nH]c4c3)cc2)cc1	6	3	0.6	-3.6	·	·	·	-8	·	i
CC(C)[C@H](NC(=O)OCc1ccccc1)C(=O)N[C@@H](Cc1c[nH]c2ccccc12)C(=O)O	9	3	0.2	-6.1	·	6	-13	-10	-1.2	i
Cc1ccc2nc(-c3ccc(O)cc3)c(Nc3ccc4c(c3)OCCO4)n2c1	-10	-6	-1.9	-1.9	12	0	-5	-12	3.3	i
CCC(C)NC(=O)CN(C1CCCCC1)S(C)(=O)=O (stereo not drawn)	13	7	-2.8	-3.1	-3	-2	6	4	-1.2	i
O=C(NCCCn1ccnc1)c1ccco1	·	·	·	·	-3	3	-23	1	0.2	·
Cc1cc2ccccn2c1C(=O)c1nc(NCc2ccccc2)ncc1Cl	-2	1	3.6	3.4	·	-13	18	-9	10	i
Cc1ccnn1CC(=O)N/N=C/c1ccc([N+](=O)[O-])s1	·	·	·	-2.1	-41	14	4	-23	5.7	i
Cn1c(-c2ccc3c(c2)OCO3)cnc1NC(=O)CCC(=O)NCCc1ccccc1	·	·	·	·	4	-16	11	4	1.5	·
COc1cc2c(C(=O)Nc3ccc4c(c3)OCO4)cn(CC(C)C)c(=O)c2cc1OC	·	·	·	·	-3	32	6	·	22*	·
COc1ccc(NC(=O)NNS(=O)(=O)c2cc(C)ccc2C)cc1OC	6	5	0.6	1.6	15	8	-9	-2	-0.4	i
Clc1ccc(N2COC3c4cccc5cccc(c45)C32)cc1 (stereo not drawn)	·	·	·	·	46	-4	17	-6	6.5	·
COc1ccc(NC(=O)C2CCCN(S(=O)(=O)c3ccc4c(c3)oc(=O)n4C)C2)c(OC)c1 (stereo not drawn)	2	-1	0.1	-8.0	-8	8	1	1	1.3	i
CCCCN(CC)C(=O)/C=C/c1cccc([N+](=O)[O-])c1	·	·	·	·	4	0	7	0	1.2	·
O=C(CSc1nc(-c2ccccc2)c(-c2ccccc2)o1)N1CCOCC1	·	·	·	·	·	-26	18	-9	-1.0	·
CCOC(=O)Cc1csc(NC(=O)c2ccncc2)n1	·	·	·	·	-6	-4	-18	·	-1.2	·
CCc1cccc(C)c1NC(=O)C1CCN(c2nn3c(=O)cc(C)nc3s2)CC1	1	10	0.6	-3.8	-11	3	-9	-3	2.6	i
Cc1ccc(S(=O)(=O)N(CC(=O)N2CCCC2)C2CCCCC2)cc1	0	-2	3.0	0.9	0	3	-3	2	-5.9	i

# RanGTP-Impb inh, what is marked active above
canonical_smiles	Ecoli rRNA inh	Ecoli rRNA inh OD600	Ecoli rRNA inh RFP	MLL AF4-AF9 inh	ALR H2O2 inh	RanGTP-Impb inh	FGF22 binding
COc1cc2c(C(=O)Nc3ccc4c(c3)OCO4)cn(CC(C)C)c(=O)c2cc1OC	·	·	·	·	-3	22*	·
